# Screens (PubChem BioAssay)
# Mtb betalactam – beta-lactam sensitization of Mtb H37Rv; AID 434955; M. tuberculosis H37Rv growth with meropenem, percent inhibition; hits of this screen are not shown here; hit rate 0.27% among 330,000; inhibition, % at 25 µM;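 active = about 74% or more and at least 40 points above the plate without the antibiotic, then above 30% in a dose series; inconclusive = first-round hits that could not be retested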;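 also: growth measured after seven days incubation then overnight dye step; 0% = bacteria only wells and 100% = bacteria with antibiotic; twin plates without the antibiotic show which effects depend on it; some results filed as inactive read as strong as hits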
# YopH PTP inh – inhibitors of Yersinia enterocolitica YopH tyrosine phosphatase | fluorescence Ex485/Em525 | inhibition, %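 (about 10 µM by stock and volumes)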 | hit rate 0.16% among 140,000 | AID 898;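 active = inhibition of 50% or more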;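 also: controls were vehicle for no effect and minimum signal wells for full effect; inactives centre near -20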
# RecA intein inh – Mtb RecA intein splicing inhibition | AID 2221 | cell-free RecA intein splicing, fluorescence | P9WHJ3 | hit rate 0.75% among 290,000 | inhibition, %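 (about 9 µM by stock and volumes)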; in the data active = inhibition above about 30%; inconclusive = no clear call, values can overlap the other calls;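 also: 0% = vehicle wells and 100% = reference inhibitor control wells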
# Target sequence (P9WHJ3 whole entry, looked up): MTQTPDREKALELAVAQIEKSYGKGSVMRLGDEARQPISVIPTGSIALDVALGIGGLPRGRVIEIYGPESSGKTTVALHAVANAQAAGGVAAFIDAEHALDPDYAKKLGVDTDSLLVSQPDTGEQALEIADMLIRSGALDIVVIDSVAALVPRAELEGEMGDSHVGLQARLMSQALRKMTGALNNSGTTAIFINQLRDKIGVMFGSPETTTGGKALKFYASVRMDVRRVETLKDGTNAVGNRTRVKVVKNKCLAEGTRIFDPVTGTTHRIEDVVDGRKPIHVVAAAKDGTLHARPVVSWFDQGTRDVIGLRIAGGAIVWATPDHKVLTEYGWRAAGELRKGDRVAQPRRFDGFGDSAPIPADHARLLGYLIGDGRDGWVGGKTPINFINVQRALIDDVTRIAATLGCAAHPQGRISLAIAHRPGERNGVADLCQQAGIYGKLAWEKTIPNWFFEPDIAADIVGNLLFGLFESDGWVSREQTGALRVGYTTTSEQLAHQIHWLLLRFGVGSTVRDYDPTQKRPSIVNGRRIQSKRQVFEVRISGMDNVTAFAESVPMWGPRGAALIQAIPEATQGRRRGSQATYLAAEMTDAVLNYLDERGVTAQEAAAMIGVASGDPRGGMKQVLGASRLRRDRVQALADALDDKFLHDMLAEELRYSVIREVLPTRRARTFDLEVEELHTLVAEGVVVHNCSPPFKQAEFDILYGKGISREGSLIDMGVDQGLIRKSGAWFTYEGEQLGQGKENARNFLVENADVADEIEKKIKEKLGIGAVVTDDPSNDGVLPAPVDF
# Arbovirus anti – arbovirus infection inhibition; AID 1251; hit rate 0.37% among 200,000; arbovirus infection cell-based antiviral screen; inhibition, % at 10 µM;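 active = inhibition from about 30%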;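 also: bluetongue infection of BSR cells; cell survival read as ATP light after 72 h; 0% = infected wells without compound and 100% = uninfected wells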
# Mtb growth – M. tuberculosis H37Rv growth inhibitors, H37Rv strain (AID 1626); M. tuberculosis H37Rv growth inhibition; higher % means a stronger effect; inhibition, % at 10 µM; hits with a dose series show IC50 in µM; hit rate 0.95% among 220,000;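 active = confirmed in a dose series; inconclusive = inhibition above 80% but not taken into the dose series; inactive = below 80% or under 30% at every dose of the series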;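 also: bacteria incubated seven days before Alamar blue readout; 0% = bacteria only wells and 100% = bacteria with antibiotic wells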
# Arbovirus anti repeat – recorded beside Arbovirus anti, whose call it bears; inhibition, %; measured here: 10K subset replicate screen; many hits read low in the repeat;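 first of two repeat runs on a subset; 0% = infected and 100% = uninfected wells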
# Starred values were filed as active, the others as inactive; ? = inconclusive; . = not tested or not shown; & = joins results of further samples.
SMILES,Mtb betalactam,YopH PTP inh,RecA intein inh,Arbovirus anti,Mtb growth,others
Cc1ccc(/C=c2\sc3nc(-c4ccccc4Br)nn3c2=O)o1,17,18,0.8,16,.,
O=C(C1CCC(CNS(=O)(=O)c2ccccc2)CC1)N1CCCCC1 (centres undefined),1,.,-2.0,.,.,
Cc1cc(C)c(/C=C(\C#N)C(N)=S)c(C)c1,-1,-17,-1.9,-8,-6%,
NS(=O)(=O)c1ccc(CCNC(=O)c2ccc(C(=O)c3ccccc3)cc2)cc1,6,.,-1.1,.,.,
Cc1cc(OCC(=O)c2ccc(F)cc2)ccc1N1C(=O)CCC1=O,1,-18,-0.6,-6,5%,
COc1cccc(NS(=O)(=O)c2ccc3c(c2)NC(=O)C(C)C(=O)N3)c1 (centres undefined),1,.,0.3,.,.,
COc1ccccc1CN1CCSCC1,-1,-14,33*,7,-5%,
O=C(Nc1ccccc1OC(=O)N1CCCCC1)N1CCCCC1,-5,-43,2.0,14,-3%,Arbovirus anti repeat=-2
Cc1ccc(NC(=O)C2C(c3ccccc3)C2(Cl)Cl)c(C)c1 (centres undefined),99,-14,-0.7,-2,-2%,
Cc1ccccc1NC(=O)Cc1cn(C)c2ccccc12,9,-18,0.1,0,7%,
C/C(=N\NC(=O)c1ccccc1)c1c(C)[nH]n(-c2ccccc2)c1=O,59,.,7.3,.,.,
COc1ccccc1-c1ccc2nnc(SCC(=O)N3CCCC3)n2n1,0,.,-0.2,.,.,
O=C(CN1C(=O)CCSc2ccccc21)N1CCC2(CC1)OCCO2,-9,-33,0.6,13,-1%,
O=C(Nc1cnn(Cc2ccc(F)cc2)c1)c1cc(-c2ccco2)on1,1,.,2.3,-28,-6%,
CC1(C)CC(=O)C=C(Nc2ccc(C(=O)O)c(O)c2)C1,85,.,-10,.,.,
C=CCNC(=O)C(C#N)c1nc2ccccc2nc1N1CCCCCC1 (centres undefined),64,-19,-160,3,5%,
O=C(O)/C=C\C(=O)Nc1cccc(C(=O)Nc2cccc(O)c2)c1,-2,.,5.4,-4,-2%,
CC(C)(/C=N/O)/[N+]([O-])=C/c1ccccc1C(F)(F)F,-5,-28,-3.4,14,.,
COCCn1c(SCC(=O)Nc2cc(C)on2)nnc1C(C)C,-5,.,-0.1,.,.,
COc1ccc(C(=O)/C=C/C(=O)N(CC(=O)NC2CCCCC2)Cc2ccc(F)cc2)c(O)c1,.,.,9.3,-40,-3%,
CC(Oc1ccc(S(=O)(=O)N2CCCC2)cc1[N+](=O)[O-])C(=O)N(C)c1ccccc1 (centres undefined),-8,.,-0.3,.,.,
CN(CC(=O)Nc1ccc(N2CCOCC2)cc1)C(=O)c1ccc(O)c(Cl)c1,7,.,-3.0,.,.,
NC(=O)c1nn(-c2ccccc2)c(=O)cc1O,3,-51,0.2,4,-6%,
CC(=O)Nc1cccc2c1OCCO2,1,-24,0.2,1,-4%,
CC1(C)N=C(/C=N/O)CN1O,-1,-22,-0.7,6,8%,

# The listing continues.
SMILES,Mtb betalactam,YopH PTP inh,RecA intein inh,Arbovirus anti,Mtb growth,others
Cc1ccc(CNC(=O)c2ccc(CS(=O)(=O)c3ccccc3)o2)cc1,6,.,-0.8,.,.,
CC1(c2ccc(OC(F)F)cc2)NC(=O)N(/N=C/c2c(O)ccc3ccccc23)C1=O (centres undefined),11,-13,1.0,0,8%,
CC(C)(C)SCCNC(=O)Nc1ccccc1,-3,-4,0.1,-1,4%,
O=C(CN(Cc1ccc2c(c1)OCO2)C(=O)CNC(=O)c1ccco1)NC1CCCCC1,-2,-35,-2.1,-3,-12%,
NC(=S)Nc1nc2ccccc2s1,-2,.,15,-4,?,
CCCCCCNc1nc(NCc2ccco2)nc(OCC)n1,22,12,5.7,-26,11%,
O=C(NCCCN1CCN(CCCNC(=O)c2cccc([N+](=O)[O-])c2)CC1)c1cccc([N+](=O)[O-])c1,5,-17,-0.3,2,6%,
CC1(C)Cc2c(sc(NC(=O)C(=O)N3CCOCC3)c2C#N)CO1,-6,.,-1.3,.,.,
COc1cc(/C=N/NC(=O)c2ccc(-n3cccc3)cc2)ccc1O,4,-6,-2.4,-23,4%,
Cc1cc(NC(=O)COC(=O)C2CCN(S(=O)(=O)c3ccccc3)CC2)c([N+](=O)[O-])cc1C,-6,.,1.0,.,.,
C[C@@H]1CN(CCCn2c3ccccc3c3ccccc32)C[C@H](C)N1,.,.,.,-22,2%&10%,
COc1ccc(CNC(=O)COC(=O)/C=C/c2cccs2)cc1,6,5,-0.9,7,5%,
O=C1CC(c2c[nH]c3ccccc23)C(=O)N1 (centres undefined),-1,-33,-5.2,1,-3%,
N#CC1=C2N=C(N)c3ccccc3N2C2=C(C(=O)CCC2)C1c1ccc(F)cc1 (centres undefined),25,.,2.1,.,-4%,
O=C(CCc1nc2ccccc2c(=O)[nH]1)Nc1cc(C(F)(F)F)ccc1N1CCOCC1,-14,.,-0.6,.,.,
CCN=C(NCC)SC1CC(=O)N(c2ccc(OC)cc2)C1=O (centres undefined),7,-9,1.1,-2,2%,
O=C(Nc1cccc(Cl)c1)Nc1cc(S(=O)(=O)N2CCOCC2)ccc1N1CCCC1,0,-30,6.7,-15,4%,
O=C(CSc1n[nH]c(=O)n1C1CC1)N1N=C(c2ccc(Cl)cc2)CC1c1ccco1 (centres undefined),-8,.,1.0,.,10%,
Cn1c(-c2ccccc2)cccc1=O,-3,-46,0.2,-4,0%,
COc1cc(C)c(Cc2cnc(N)nc2N)cc1OC,2,.,-1.6,4,-11%&2%,
O=C(CCC1CCCCC1)Nc1cc(C(F)(F)F)ccc1N1CCOCC1,6,.,12,.,.,
CCOC(=O)N1CCC(NC(=O)CCS(=O)(=O)c2ccc3c(c2)CCN3C(=O)CC)CC1,-11,-52,0.5,5,-14%,
CCS(=O)(=O)Nc1c(C(=O)OC)[nH]c2ccccc12,14,-17,0.3,-2,-1%,
CCOc1ccc(Cn2nnc(C(=O)NCc3ccc(OC)cc3)c2N)cc1,0,-10,0.8,7,5%,Arbovirus anti repeat=1
CCN(c1ccccc1)c1cc2ccccc2c(=O)[nH]1,3,.,65*,.,.,

# Next part; it opens with the five that closed the last part.
SMILES,Mtb betalactam,YopH PTP inh,RecA intein inh,Arbovirus anti,Mtb growth,others
O=C(CCC1CCCCC1)Nc1cc(C(F)(F)F)ccc1N1CCOCC1,6,.,12,.,.,
CCOC(=O)N1CCC(NC(=O)CCS(=O)(=O)c2ccc3c(c2)CCN3C(=O)CC)CC1,-11,-52,0.5,5,-14%,
CCS(=O)(=O)Nc1c(C(=O)OC)[nH]c2ccccc12,14,-17,0.3,-2,-1%,
CCOc1ccc(Cn2nnc(C(=O)NCc3ccc(OC)cc3)c2N)cc1,0,-10,0.8,7,5%,Arbovirus anti repeat=1
CCN(c1ccccc1)c1cc2ccccc2c(=O)[nH]1,3,.,65*,.,.,
O=C(CCCN1C(=O)CSc2ncccc21)N1CCN(c2cccc(C(F)(F)F)c2)CC1,7,-36,1.6,6,6%,
O=[N+]([O-])c1cccc(-c2n[nH]c(=S)n2-c2ccc(Br)cc2)c1,-5,.,-1.0,0,1%,
Cc1ccc(OCCCN2C(=O)C(=O)c3cc(C)ccc32)cc1,-2,.,0.0,-16,-1%,
COC(=O)c1cc(=O)n(Cc2ccc3c(c2)OCO3)c(=Nc2ccc(F)cc2)s1,0,-24,3.8,-40,-1%,
COC(C/C=C\[C@H](O)[C@H](C)OCc1ccccc1)OC,-15,.,-1.1,.,-3%,
COc1cccc(C2=NN(C(=O)c3cccs3)C(O)(C(F)(F)F)C2)c1 (centres undefined),-5,.,-0.6,6,0%,
Cc1cc(C)cc(C(=O)Nc2ccc(N3CCN(C(=O)c4ccco4)CC3)cc2)c1,56,.,0.1,.,.,
Cc1ccc(/C=C/C(=O)NCCCn2ccnc2)cc1,-8,.,1.6,-5,0%,
Cc1ccccc1N=C(NOCc1ccccc1)c1nonc1N,5,-3,.,-3,15%,
O=c1c2ccccc2c(C=Nc2ccccc2O)c(O)n1-c1nccs1,-4,.,-0.8,.,-6%,
CC(=O)Nc1ccc(S(=O)(=O)N2CCSCC2)cc1,-7,-4,0.2,9,-7%,Arbovirus anti repeat=4
Nc1c(-c2cccc(Cl)c2)cnn1-c1cccc(C(F)(F)F)c1,2,-11,12,-12,3%,
Cc1ccc(NC(=O)NCCCN2CCCC2=O)cc1,-8,-31,0.2,8,-2%,
Oc1nc(-c2ccc(Cl)cc2)n2ccncc12,8,.,-89,-2,6%,
O=C(CN1CCN(S(=O)(=O)c2ccc(Br)cc2)CC1)Nc1ccccc1F,-2,-10,-0.4,11,2%,
CCn1cc(C(=O)OCc2ccccc2)c(=O)c2ccc(C)nc21,-2,-4,0.7,-2,10%,
O=[N+]([O-])c1cc2c(cc1C=Nc1ccccc1)OCO2,2,-14,-3.4,-1,-5%,
O=C(N1CCCCC1)C1(c2ccccc2)CCCCC1,3,.,0.5,.,.,
CC1(c2ccccc2Br)NC(=O)N(CC(=O)Nc2ccc(S(N)(=O)=O)cc2)C1=O (centres undefined),0,.,-0.2,.,.,
CCCCn1c(CCNC(=O)c2ccco2)nc2ccccc21,-1,.,0.4,.,.,
CCOC(=O)N1CCN(C(=O)c2ccc3c(=O)n(-c4ccc(OC)cc4)c(=S)[nH]c3c2)CC1,-3,-45,-2.4,5,-11%,
O=[N+]([O-])c1ccc(-c2nc(NCc3cccnc3)c3ccccc3n2)cc1,6,.,2.8,.,.,
Cc1cc(C(=O)N2CCN(CCc3ccccc3)CC2)no1,-5,-2,3.6,-1,12%,
CCCCn1c(CCn2nc(C)c(Br)c2C)n[nH]c1=S,-7,-17,1.7,2,0%,
Cc1ccc(N(CC(=O)NCc2ccc(F)cc2)C(=O)CCC(=O)Nc2ccccn2)cc1C,-3,.,-0.3,.,.,

# (more compounds)
SMILES,Mtb betalactam,YopH PTP inh,RecA intein inh,Arbovirus anti,Mtb growth,others
O=C(COC(=O)c1ccc2ncsc2c1)NC(=O)c1ccccc1,-7,.,7.4,3,-8%,
COc1ccc(S(=O)(=O)N(C)C)cc1NC(=O)CSc1nnc(-c2cccnc2)o1,-3,.,3.8,10,4%,
COC(=O)c1nn(-c2ccc3c(c2)OCO3)cc1O,67,-14,-0.7,6,16%,
CCCOc1ccc(C(=O)NCc2cccnc2)cc1,-8,-15,1.6,3,-1%,
CN(Cc1ncc[nH]1)Cc1cn(-c2ccccc2)nc1-c1ccc2c(c1)OCO2,3,.,1.6,.,7%,
O=C(NCCc1ccccc1)C(c1ccncc1)N(C(=O)c1csnn1)C1CC1 (centres undefined),1,-5,0.2,2,-11%,
COc1ccc(CN(C)C(=O)c2cccc(NS(=O)(=O)c3ccccc3)c2)cc1F,-2,.,1.3,.,.,
COc1ccccc1CNC(=O)CCCn1nc(C)n2ccnc2c1=O,-1,.,-1.6,.,.,
COc1ccccc1C(=O)COC(=O)c1ccccc1OCC(=O)Nc1ccc(SC(F)F)cc1,0,-5,1.4,6,-1%,
Cc1ccc(O)c(C(=O)c2cc(C#N)c(=O)n(-c3nccs3)c2)c1,2,.,-3.5,-11,4%,
Cc1ccc(C(=O)COC(=O)CCC(=O)Nc2cccc(Cl)c2)cc1[N+](=O)[O-],-2,-4,-0.6,-2,-3%,
O=C(O)c1ccc2[nH]c3c(c2c1)CCCC3,-9,.,-18,.,.,
O=C(c1cccs1)N1N=C(c2ccc(O)cc2)CC1c1ccccc1 (centres undefined),4,-23,-0.6,-4,11%,
Cc1csc(NC(=O)c2cc(-c3ccco3)nc3ccccc23)n1,-11,-13,8.7,8,8%,
c1ccc(-c2n[nH]c(-c3ccccc3)c2-c2nc3ccccc3[nH]2)cc1,-5,-12,7.2,5,4%,
Cc1ccc2cccc(Oc3ncnc4scc(-c5ccccc5)c34)c2n1,4,-19,-0.9,1,16%,
CSCCC(NC(=O)/C(=C/c1ccco1)NC(=O)c1ccc(Br)o1)C(=O)O (centres undefined),-1,.,-4.5,.,.,
C/C(Cl)=C/Cn1c(SCCN2CCOCC2)nc2c1c(=O)[nH]c(=O)n2C,-14,-32,0.9,9,-3%,
Cn1c2ccc(F)cc2c2ncn(Cc3ccco3)c(=O)c21,-2,-13,4.4,-4,-5%,
O=C(O)CCC(=O)N1CC=C(c2ccccc2)CC1,-4,-10,1.8,4,-3%,
CC(=O)N1N=C(c2cccs2)CC1c1cc2cc(C)ccc2nc1Cl (centres undefined),74,.,2.0,.,1%,
Cc1nc(Nc2nc(CSc3nc4ccccc4[nH]3)cc(=O)[nH]2)nc2ccccc12,-1,-20,-1.4,-38,11%,
Cc1cc(Cl)c(OCCCCN2CCOCC2)c(Br)c1,0,-12,0.6,-4,8%,
Cc1nc(Nc2ccc(C(=O)O)cc2)nc(Nc2ccc(C(=O)O)cc2)c1[N+](=O)[O-],2,.,3.0,6,-7%,
COc1ccccc1OCCNC(=O)CSC(=S)N1CCCC1,5,.,-0.8,.,.,

# Only part of the results is shown; count on the stated rates, not on these rows.
